# Screens: PubChem BioAssay, Johns Hopkins Ion Channel Center
# KCNQ2 pot = potentiators of rat KCNQ2 potassium channel | CHO-K1 KCNQ2, FluxOR thallium flux fluorescence; hits give high values | B-score at 10 µM | hit rate 0.54% among 310,000 | AID 2239;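 active = fluorescence ratio B-score at least 3 SD of library B-scores, with initial fluorescence B-score within 3 SD, cut at about 5.3 in these data; same plate scores as AID 2156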;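 also: B-score of peak minus minimum over baseline fluorescence ratio after K+ and Tl+ stimulus; positive B-score means potentiation of KCNQ2 with more thallium influx and brighter signal; only the inactives scoring about 0 or higher are listed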
# Target sequence (O88943 whole entry, looked up): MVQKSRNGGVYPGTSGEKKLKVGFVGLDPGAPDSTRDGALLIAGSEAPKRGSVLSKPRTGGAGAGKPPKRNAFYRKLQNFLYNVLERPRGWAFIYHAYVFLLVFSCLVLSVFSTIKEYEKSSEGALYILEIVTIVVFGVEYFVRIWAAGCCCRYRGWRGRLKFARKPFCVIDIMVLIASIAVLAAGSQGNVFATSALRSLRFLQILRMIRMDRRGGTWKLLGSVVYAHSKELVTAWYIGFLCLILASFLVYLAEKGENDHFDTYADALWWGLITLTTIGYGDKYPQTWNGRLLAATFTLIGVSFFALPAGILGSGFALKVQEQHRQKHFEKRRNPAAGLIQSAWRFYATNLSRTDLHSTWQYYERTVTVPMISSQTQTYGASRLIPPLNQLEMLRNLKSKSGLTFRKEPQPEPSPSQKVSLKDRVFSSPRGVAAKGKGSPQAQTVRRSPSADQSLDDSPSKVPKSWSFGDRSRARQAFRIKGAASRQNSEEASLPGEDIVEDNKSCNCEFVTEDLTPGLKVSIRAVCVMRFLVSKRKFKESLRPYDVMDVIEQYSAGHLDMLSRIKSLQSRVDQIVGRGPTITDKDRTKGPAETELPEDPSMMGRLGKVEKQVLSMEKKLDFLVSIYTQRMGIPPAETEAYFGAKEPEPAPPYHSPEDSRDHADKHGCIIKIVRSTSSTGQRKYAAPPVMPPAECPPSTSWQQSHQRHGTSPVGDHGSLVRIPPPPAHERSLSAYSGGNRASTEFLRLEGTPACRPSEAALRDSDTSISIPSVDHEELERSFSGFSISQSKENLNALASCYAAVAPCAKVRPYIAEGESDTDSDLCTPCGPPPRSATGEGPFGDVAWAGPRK
# KCNQ2 pot baseline = second read-out of KCNQ2 pot, no call of its own (marks repeat the call); B-score; compound at 10 µM; measured here: initial fluorescence intensity artifact check;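 brightness before thallium and not channel activity; 0 = typical well and far values either way flag optical interference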
# Starred values were filed as active, the others as inactive. This is a subset; count on the stated rates, not on these rows.
SMILES,KCNQ2 pot,KCNQ2 pot baseline
CCNC(=S)N(CCN(C)C)Cc1cc2cc3c(cc2[nH]c1=O)OCO3,0.62,1.8
CCCCNC(=S)NNC(=O)c1ccco1,1.2,-0.17
COc1ccc(N2CCN(CCCNC(=O)CCCn3c(=O)[nH]c4ccsc4c3=O)CC2)cc1,0.08,0.6
CCCCc1nnc(NC(=O)COC)s1,0.7,-0.01
CCCn1c(=O)c2sccc2n2c(CCCC(=O)NC3CCN(Cc4ccccc4)CC3)nnc12,0.15,-0.1
NC(=O)c1c(NC(=O)c2ccncc2)sc2c1CCCC2,0.29,-1.4
COc1ccc(C(=O)NCc2nnc(SCC(=O)NCCc3ccccc3)o2)cc1,0.07,-1.1
CNC(=O)[C@@]1(C)C=C[C@@H](Cc2ccccc2)N1C(=O)OC,0.65,0.83
Cc1ccc2nc(CSc3nnc(-c4ccco4)o3)cc(=O)n2c1,0.4,-0.53
O=C(Nc1sc2c(c1C(=O)O)CCC2)c1ccc(F)cc1,2.2,-0.87
COc1ccc(/C=N/Nc2nc(N)cc(Cl)n2)cc1OC,0.16,-0.42
N#CCOc1ccccc1/C=N/n1nnnc1N,0.91,0.11
N#CN=C(N)c1ccccc1,1.4,0.95
CC1CCN(C(=O)CSc2nnc(-c3ccco3)o2)CC1,1.4,-0.91
Cc1cc(C)c(C#N)c(SCC(=O)N2CCN(Cc3ccccc3)CC2)n1,1.6,0.28
Cc1cc(C(=O)N2CCC(CO)(Cc3cccc(C(F)(F)F)c3)CC2)n[nH]1,0.45,-2.2
CCO[C@@H]1OC(C(=O)NC2CC2)=C[C@H](c2c[nH]c3ccccc23)[C@H]1CCCO,0.87,0.31
Nc1ccc(CCNc2ncnc3c2ncn3[C@@H]2O[C@H](CO)[C@@H](O)[C@H]2O)cc1,0.02,-0.06
O=C(Nc1cccc(F)c1)c1cc(S(=O)(=O)N2CCC3(CC2)OCCO3)ccc1F,0.32,1.1
O=C(/C=C/c1ccc2ccccc2n1)c1cc(Br)ccc1O,0.75,-0.03
NC(=O)CC(NC(=O)Cc1cccc2ccccc12)c1ccc(N2CCN(c3ccccc3)CC2)c([N+](=O)[O-])c1 (centres undefined),0.75,-0.19
O=C(N/C(=C\c1cccc([N+](=O)[O-])c1)C(=O)N1CCOCC1)c1cccc(Br)c1,1.1,-0.72
CCCOc1ccc(C(O)C(CN2CCOCC2)c2ccccc2)cc1 (centres undefined),0.29,-0.29
C=CCN1C(=O)C(Cc2ccc(C)cc2)S/C1=N/N=C/c1ccco1 (centres undefined),0.64,-0.52
O=C(CSc1nnc(CNC(=O)c2ccco2)o1)Nc1cccc(F)c1,2.1,-0.61
CCOC(=O)c1cc(C(=O)OCC)c(=O)[nH]c1N1CCCC1,0.52,-0.07
O=C(NCC1CC1)Nc1ccccc1F,0.34,-2.2
COc1ccc(C(=O)N(C)Cc2ccccn2)cc1OC1CCN(C(C)C)CC1,0.97,0.91
CCOC(=O)/C(=C\c1ccc([N+](=O)[O-])o1)NC(=O)c1ccccc1,1.4,-1
CC1(C)CC(=O)C2=C(C1)OC(N)=C(C#N)C2c1cccc(OC(=O)c2ccco2)c1 (centres undefined),2,-0.99
COc1cc(/C=N/S(=O)(=O)CCc2ccccc2)ccc1O,2.6,-1.8
CCN(CC)S(=O)(=O)c1ccc(C(=O)N2CCc3ccccc32)cc1,1,0.01
O=C(CSc1nnc(-c2ccccn2)o1)Nc1ccc(F)cc1,0.21,-1.5
CC1CCN(c2ccc3nnc(CCC(=O)NC(C)C)n3n2)CC1,0.85,-0.72
CCC(C)c1ccc(NC(=O)C/C(C)=N/NC(=O)c2cnccn2)cc1 (centres undefined),0.68,-0.76
CCc1cc(=O)oc2c(C)c(O)c(CN(C)C)cc12,0.04,1.2
COc1ccc(C(=O)N[C@H]2CCCCNC2=O)cc1OC1CCN(C(C)C)CC1,2.7,-0.49
COc1cc2nc(Cl)nc(N3CCCCC3)c2cc1OC,1.7,-0.62
N#Cc1nc(-c2ccco2)oc1NCCCN1CCOCC1,1.4,-1.8
COc1ccc(CCN2CC(C(=O)NCc3cc(C(C)C)no3)CCC2=O)cc1 (centres undefined),1.6,0.23
N#C/C(=C\c1ccc(OCCN2CCOCC2)cc1)C(=O)Nc1ccccc1F,0.77,0.16
Cc1ccc(N(CC(=O)NCCc2ccccc2)C(=O)c2csnn2)cc1,1.1,-0.43
CC(C)NC(=O)COc1ccc(S(=O)(=O)N(C)Cc2ccccc2)cc1,0.77,0.65
CCOC(=O)NC(=O)c1cn(CCNCCO)c(=O)[nH]c1=O,0.5,-1.8
CC(C)(C)c1nc2ccccc2c2nnc(SCC(=O)Nc3nccs3)n12,1.5,1.2
O=C(CCc1ccccc1)Nc1ccc2c(c1)C(=O)OC2,0.45,2.7
CN1C(=O)c2cccc(NC(=O)CCc3ccccc3)c2C1=O,2.3,-0.04
COc1ccc(Nc2oc(-c3ccccc3)nc2C#N)cc1,0.14,0.51
O=C(NCCOc1ccccc1)C1CCC(=O)N(CCc2ccccn2)C1 (centres undefined),0.91,0.09
C[C@]12CCC(=O)C=C1[C@H](O)C[C@@H]1[C@@H]2[C@@H](O)C[C@@]2(C)[C@H]1CC[C@]2(O)C(=O)CO,0.85,1.2

# Later entries
SMILES,KCNQ2 pot,KCNQ2 pot baseline
C=C(C)CCC1(C)NC(=O)N(c2ccccc2)N1 (centres undefined),0.19,-1.9
COc1ccc(Nc2nc(=O)[nH]nc2C)cc1,1.2,0.1
CC(=O)/C(=N\Nc1ccccc1)Sc1nncn1C,0.39,-1.3
O=c1nc2s/c(=C\c3ccco3)c(=O)n2nc1Cc1ccccc1,0.15,0.93
Cc1c(CCC(=O)N[C@@H](CC(C)C)C(=O)O)c(=O)oc2cc3oc4c(c3cc12)CCCC4,1.1,0.29
CC(C)(C)C(=O)Nc1cc(S(=O)(=O)Nc2ccc(Cl)cc2)ccc1O,0.53,-0.07
Cc1nc2sc(C(c3cccs3)N3CCOCC3)c(O)n2n1 (centres undefined),0.14,1.4
CCCCS(=O)CC(COC)OC(=O)c1ccccc1 (centres undefined),0.03,0.11
CCc1ccc(C2=CSC3=NCCN23)cc1,3.5,0.23
Cc1ccc(NC(=S)N2CCOCC2)c(C)c1,0.16,-0.02
C/C(=N\Nc1nc(C)cc(-c2ccccc2)n1)c1cccc(N)c1,1.1,-0.34
O=C(CCC1CCCN(C(=O)c2ccsc2)C1)N1CCN(c2ccccn2)CC1 (centres undefined),1.5,-0.02
O=C(CCS(=O)(=O)c1ccccc1)Nc1ccc(-c2nc3ccccc3s2)c(O)c1,0.92,0
O=C1CSC(=Nc2cccc(Cl)c2Cl)N1,0.63,-0.38
Cc1ccnc(NC(=O)CCN2C(=O)c3ccccc3S2(=O)=O)n1,0.3,1.6
Cc1ccccc1-n1c(=O)c2ccccc2n2c(=O)[nH]nc12,1.2,-0.02
CC(=O)Nc1ccc(NS(=O)(=O)Cc2ccccc2)cc1,1.3,0.64
COc1ccc(C2(NC(C)=O)CCN(C(=O)c3ccco3)CC2)cc1,0.7,-0.46
O=C(CN(C(=O)CCC(=O)Nc1ccccn1)c1cccc(F)c1)NCc1ccc2c(c1)OCO2,0.37,0.45
S=c1[nH]nc(Nc2ccc(Cl)cc2)s1,0.1,0.5
O=c1c(C=Nc2ccc(Cl)cc2)c[nH]n1-c1cccc(Cl)n1,1.7,-0.16
O=C(OCC(=O)N1CCCC1)c1c2c(nc3ccccc13)CCCCC2,1.3,0.53
CCn1c(=O)c2c(nc3n2CCCN3Cc2ccccc2)n(C)c1=O,2.1,-0.21
O=C(O)c1cccc(-n2cccc2/C=C2/SC(=O)N(CC(=O)N3CCCC3)C2=O)c1,0.95,2
COc1ccccc1N1CCN(C(=O)CCS(=O)(=O)c2ccc3c(c2)NC(=O)C(C)S3)CC1 (centres undefined),1.1,0.77
O=C(Cn1cc(C(F)(F)F)ccc1=O)N/N=C/c1cccc(Cl)c1,1.8,-0.02
COCc1cc(=O)n2[nH]c(-c3ccc(C)cc3)cc2n1,0.25,0.03
COc1ccc(/C=C/c2nc(N)nc(-c3ccccc3O)n2)cc1,0.04,0.13
CCN(Cc1ccccc1)C(=O)c1cccc(OC2CCN(C(=O)C3CC3)CC2)c1,0.44,0.2
O=C1Nc2cc(Cl)c(Cl)cc2N(O)N1c1cc(Cl)cc(Cl)c1,2.5,-0.35
COc1ccc(S(=O)(=O)NCc2cccnc2)cc1NC(=O)c1ccccc1,0.57,0.23
COc1ccc(CC(=O)NNS(=O)(=O)c2ccc(F)cc2)cc1OC,0.35,0.01
O=C(Nc1ccccc1)N(Cc1ccc(Cl)cc1)CC(O)C(F)(F)F (centres undefined),3.2,-1.3
COC(=O)c1ccc(N/N=C/c2cc([N+](=O)[O-])cc(OC)c2O)cc1,1.1,-0.04
CCOc1ccc(NC(=O)CSc2nnc(-c3ccccn3)n2C)cc1,0.24,-2.1
CCOc1ccc(NS(=O)(=O)c2ccc(C(=O)NCCN3CCOCC3)cc2)cc1,1.5,-0.72
Nc1nc(CSc2nnnn2-c2ccc(Cl)cc2)nc(N2CCOCC2)n1,0.16,1.8
CCOc1cc2[nH]c(=S)n(CCN3CCC(C)CC3)c(=O)c2cc1OCC,1.3,-0.6
CS(=O)(=O)c1ccc(NCC2CCCO2)c([N+](=O)[O-])c1 (centres undefined),0.17,-0.01
C/C(=N\NC(=O)Cn1c(-c2ccccn2)nc2ccccc21)c1cccc(O)c1,2.2,1.1
CCCCNC(=S)N/N=C/c1cc(C)ccc1C,1.2,1.3
CC(NC(=O)COc1ccc(-c2nnco2)cc1)c1ccc(Cl)cc1Cl (centres undefined),0.47,3.1
Cc1cc(C)n2nc(SCc3nnc(SCc4ccccc4)s3)nc2n1,0.04,0.07
N#Cc1nc(-c2ccccc2F)oc1N1CCCCC1,1.2,3.4
OCCC1CN(Cc2cnc(-c3ccccc3)s2)CCN1Cc1ccccc1 (centres undefined),0.02,-1.1
CCOC(=O)COn1c(=O)c(-c2ccc(Br)cc2)[n+]([O-])c2ccccc21,0.34,1.2
Cc1nc(N)nc(C)c1Cc1ccccc1,0.07,-0.14
CCS(=O)(=O)N1CCC(c2nc3ccccc3[nH]2)CC1,0.52,0.38
CCN(CC)C(=O)C1CCCN(Cc2ccccc2F)C1 (centres undefined),0.54,-0.39
O=C(CNC(=O)c1ccccc1)NCc1ccc(Cl)cc1,3.2,0.16

# Later entries:
SMILES,KCNQ2 pot,KCNQ2 pot baseline
C/C(=N\O)c1ccc2c(c1)CC(C)O2 (centres undefined),2.1,-0.74
CC12C(=O)N(c3ccc(OC(=O)c4ccco4)cc3)C(=O)C1C1c3ccccc3C2c2ccccc21 (centres undefined),0.16,-0.64
O=C(CSc1nnc2ccccn12)NC(=O)NC1CCCC1,0.37,-0.33
CCn1cc(C(=O)NC2CCCCCC2)c2cc(OC)c(OC)cc2c1=O,0.22,-0.32
CSc1nsc(SCC(=O)Nc2ccc(C(=O)O)cc2)n1,0.97,0.38
O=C(NCCCN1CCCC1=O)c1ccc(Cl)c(Cl)c1,0.45,0.06
CC(=O)Nc1ccc(NC(=O)CN2CCN(c3cccc(C(F)(F)F)c3)CC2)cc1,2.6,-0.86
O=C(O)c1cccc(N2C(=O)Nc3ccccc3N2O)c1,0.51,0
Cc1cc(-c2nnco2)c(C)n1-c1ccc(F)cc1,0.28,0.52
O=[N+]([O-])c1cccc(/C(=N/N=C/c2ccccc2Br)C23CN4CN(CN(C4)C2)C3)c1,1.3,-0.16
COc1ccc(CNC(=S)NC2CCCCC2)cc1,2,0.71
O=C(CCn1nc(-c2ccccc2)ccc1=O)N1CCN(c2ccccn2)CC1,0.51,0.01
CCOC(=O)C1CCN(C(=S)NC2CCCC2)CC1,0.41,-0.81
COCC(=O)NC1(c2nnnn2CCOC(=O)Nc2ccc(Cl)cc2)CCCCC1,0.72,1.7
CN(c1nc2c(c(=O)n(C)c(=O)n2C)n1CC(=O)c1ccccc1)C1CCCCC1,0.04,-0.4
CC(=O)c1ccc(NC(=O)COC(=O)CCc2ccc(S(=O)(=O)N3CCOCC3)cc2)cc1,1.8,0.26
COC(=O)Cn1cc(C#N)c2ccccc21,1.1,0.23
CC(=O)N1N=C(c2ccc(C)cc2)OC1c1cccnc1 (centres undefined),0.04,-0.13
COc1ccccc1-c1ccc(/C=C2/C=C(CC(C)C)OC2=O)o1,0.01,-0.68
CCOC(=O)C1=C(C)Nc2ccccc2N=C1NC(=O)C(c1ccccc1)c1ccccc1,0.23,0.82

# Structural class, those above with a Cl atom
SMILES,KCNQ2 pot,KCNQ2 pot baseline
COc1ccc(/C=N/Nc2nc(N)cc(Cl)n2)cc1OC,0.16,-0.42
COc1cc2nc(Cl)nc(N3CCCCC3)c2cc1OC,1.7,-0.62
CC(C)(C)C(=O)Nc1cc(S(=O)(=O)Nc2ccc(Cl)cc2)ccc1O,0.53,-0.07
O=C1CSC(=Nc2cccc(Cl)c2Cl)N1,0.63,-0.38
S=c1[nH]nc(Nc2ccc(Cl)cc2)s1,0.1,0.5
O=c1c(C=Nc2ccc(Cl)cc2)c[nH]n1-c1cccc(Cl)n1,1.7,-0.16
O=C(Cn1cc(C(F)(F)F)ccc1=O)N/N=C/c1cccc(Cl)c1,1.8,-0.02
O=C1Nc2cc(Cl)c(Cl)cc2N(O)N1c1cc(Cl)cc(Cl)c1,2.5,-0.35
O=C(Nc1ccccc1)N(Cc1ccc(Cl)cc1)CC(O)C(F)(F)F (centres undefined),3.2,-1.3
Nc1nc(CSc2nnnn2-c2ccc(Cl)cc2)nc(N2CCOCC2)n1,0.16,1.8
CC(NC(=O)COc1ccc(-c2nnco2)cc1)c1ccc(Cl)cc1Cl (centres undefined),0.47,3.1
O=C(CNC(=O)c1ccccc1)NCc1ccc(Cl)cc1,3.2,0.16
O=C(NCCCN1CCCC1=O)c1ccc(Cl)c(Cl)c1,0.45,0.06
COCC(=O)NC1(c2nnnn2CCOC(=O)Nc2ccc(Cl)cc2)CCCCC1,0.72,1.7
